# D2 PAM: potentiates the human D2 dopamine receptor allosterically. P14416. DiscoveRx D2 beta-arrestin cells, luminescence, 90 min; 100% = 57 uM dopamine signal. potentiation, % (concentration not given with the values). actives 0.23% (n = 360,000). AID 624464; active = potentiation of 50% or more; inconclusive = 30% to 50%; inactive = 30% or less;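 also: compound concentration not given in the record; tested on top of an EC20 dose of dopamine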
#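 PathHunter beta-arrestin assay in DiscoveRx D2 cells. Compounds were added with an EC20 of dopamine (50 nM final) for 90 min at 37 deg C. Luminescence was read 1 h after detection reagent, with 57 uM dopamine as the EC100 control.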
# Six1-Eya2 blk: Six1/Eya2 interaction inhibition; Q15475+O00167; AlphaScreen GST-Six1/His-Eya2 binding, biochemical; hits give low values; control for the full effect not named in the record; activity change, % (no concentration beside the values); actives 0.56% (n = 360,000); AID 651725; in the data active = activity change below about -65%; inconclusive = about -30% to -65%; inactive = above about -30%; also: % is scaled to controls: 0 for no effect and ±100 for the full control effect; compound concentration not given in the record
# Target sequence (O00167 whole entry, looked up): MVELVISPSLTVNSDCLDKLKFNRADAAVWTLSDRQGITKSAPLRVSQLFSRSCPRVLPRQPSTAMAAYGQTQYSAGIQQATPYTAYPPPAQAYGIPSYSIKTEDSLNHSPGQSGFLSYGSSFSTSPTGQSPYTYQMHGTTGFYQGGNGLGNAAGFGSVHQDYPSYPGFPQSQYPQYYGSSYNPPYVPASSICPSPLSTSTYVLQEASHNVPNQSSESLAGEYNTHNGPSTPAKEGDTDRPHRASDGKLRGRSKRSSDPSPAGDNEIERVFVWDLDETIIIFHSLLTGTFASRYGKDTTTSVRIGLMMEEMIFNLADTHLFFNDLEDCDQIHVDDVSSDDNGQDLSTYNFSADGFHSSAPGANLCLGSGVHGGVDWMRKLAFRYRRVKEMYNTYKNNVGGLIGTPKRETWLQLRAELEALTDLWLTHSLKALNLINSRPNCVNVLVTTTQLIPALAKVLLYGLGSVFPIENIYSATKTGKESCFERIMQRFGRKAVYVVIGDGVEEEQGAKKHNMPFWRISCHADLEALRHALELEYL
# Target sequence (Q15475 whole entry, looked up): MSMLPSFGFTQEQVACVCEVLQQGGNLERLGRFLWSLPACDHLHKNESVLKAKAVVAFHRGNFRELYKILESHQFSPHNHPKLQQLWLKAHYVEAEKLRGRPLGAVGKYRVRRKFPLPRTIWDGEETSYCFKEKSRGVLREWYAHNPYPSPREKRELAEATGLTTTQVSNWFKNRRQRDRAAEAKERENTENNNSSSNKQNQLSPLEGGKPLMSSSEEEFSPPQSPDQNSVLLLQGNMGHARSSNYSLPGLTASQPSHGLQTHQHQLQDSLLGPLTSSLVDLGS
#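 AlphaScreen with GST-Six1 and His-Eya2 (5X mix: 250 nM and 500 nM), glutathione donor and nickel acceptor beads; buffer 50 mM Tris pH 8.0, 300 mM NaCl, 1 mM TCEP; 1 h at 37 C in the dark.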
# TRPV1 potentiator: human TRPV1 potentiation. Q8NER1. actives 0.02% (n = 320,000). AID 540277. TRPV1-expressing cells, Fluo-8 calcium influx, capsaicin EC20 potentiation; host cell line not named in the record; control for the full effect not named in the record. potentiation, % at 8.33 µM; active means potentiation above 80%; inconclusive means 30% to 80%; inactive means below 30%; also: 0% is about no effect
#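 Cells expressing TRPV1 were dye-loaded with Fluo-8 and read kinetically: 10 s baseline, 3 min after compound (agonist portion), then 2 min after EC20 capsaicin (allosteric enhancer portion). Calcium-bound dye fluorescence at 480/520 nm.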
# CtBP-E1A blk: blocks the CtBP interaction with E1A | AlphaScreen GST-E1A/His-CtBP binding, 1536-well; hits give low values; control for the full effect not named in the record | activity change, % (no concentration beside the values) | actives 0.49% (n = 340,000); in the data active means activity change below about -65%; inconclusive means about -30% to -65%; inactive means above about -30%; also: % is scaled to controls: 0 for no effect and ±100 for the full control effect; compound concentration not given in the record
#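 Steps: dispense buffer (Tris pH 8.0, NaCl 300 mM, TCEP 1 mM, BSA, Tween 20); add 5X protein mix (GST-E1A, His-CtBP, 125 nM each); pin 23 nL compound; 2 h at 37 °C, dark; add 5X beads (50 ug/mL); 1 h; read.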
# TRPML1 ag: agonists of human TRPML1 channel. TRPML1-expressing cells, Ca2+ dye fluorescence, FDSS; host cell line not named in the record; reference of the full effect not given here. Q9GZU1. activation, % (no concentration beside the values). actives 0.12% (n = 410,000); in the data active = activation above about 50%; inconclusive = about 30% to 50%; inactive = below about 30%; also: 0% is about no effect; the text of the record puts the active cut at 80%
#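 Tetracycline-induced TRPML1-DL cells are seeded and incubated overnight before loading with a no-wash Ca2+ dye and quencher. Agonist activity is taken from the 110 s fluorescence read following compound pin-transfer on an FDSS, before EC80 54-4 challenge.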
# TRPML1 inh: human mucolipin-1 channel inhibition | TRPML1-inducible cells, Ca2+ dye fluorescence, FDSS; hits give low values; inhibition of EC80 agonist-evoked calcium signal | activity change, negative = inhibition, % (test concentration not listed) | actives 0.02% (n = 390,000); in the data active means activity change below about -50%; inconclusive means about -30% to -50%; inactive means above about -30%;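 also: stimulus is agonist 54-4 at its EC80 concentration; % is scaled to controls: 0 for no effect and ±100 for the full control effect; compound concentration not given in the record; the text of the record puts the active cut at -80%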
#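 Tet-induced TRPML1-DL cells loaded with Ca8 no-wash calcium dye were read kinetically on FDSS. Compound addition was followed by EC80 agonist 54-4 (4 uM final); inhibition was read over 110 s.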
# Starred values were filed as active, the others as inactive; u = inconclusive; x = not tested or not shown.
SMILES,D2 PAM,Six1-Eya2 blk,TRPV1 potentiator,CtBP-E1A blk,TRPML1 ag,TRPML1 inh
CC1CCCCC1NC(=O)COC(=O)c1ccc2c(c1)OCCO2 (configuration not stated),-2.8,4.2,1.4,3.6,0.0,3.2
Cc1ccc(-c2nnc(SCC(=O)N/N=C/c3ccc(C)s3)n2-c2ccccc2)cc1,-8.6,-3.9,-2.8,7.2,2.2,-14.2
O=C(CSc1nnc(CNC(=O)c2ccc(F)cc2)o1)NCC1CCCO1 (configuration not stated),-21.3,3.5,5.8,-20.1,0.9,-5.9
Nc1nc(SCC(=O)NCCO)nc2sc3c(c12)CCCC3,-4.4,-5.3,-2.7,x,-0.4,-2.4
CCn1c(=O)c(C(=O)NCCNCCO)c(O)c2ccccc21,-20.4,-2.0,5.5,-3.7,-0.6,-17.0
CN1CCC(N(C)C(=O)c2cccc(S(=O)(=O)N3CCc4ccccc43)c2)CC1,-8.0,2.9,x,-5.4,-0.4,-0.5
Cn1c(N)c(C(=O)COC(=O)c2ccnc3ccccc23)c(=O)n(C)c1=O,-41.4,1.8,-14.8,-1.1,-0.3,-1.6
Cc1ccc(NC(=O)C(=O)NCCN2CCN(C(=S)Nc3ccccc3)CC2)cc1,-16.4,0.6,-0.7,2.1,1.2,2.6
Cc1cc(=O)[nH]c(NN=C(CC(C)C)CC(C)C)n1,-24.0,-4.5,6.0,-8.2,1.4,-4.1
CCCCn1c(SCC(=O)NC(C)CC)nc2ccc(N3CCOCC3)cc2c1=O (configuration not stated),-21.5,-0.1,2.0,2.1,-0.2,12.3
C=CCn1nc2ccccc2c1OC,-5.7,1.5,23.9,2.8,-0.4,11.2
O=C(Nc1nc(COc2ccccc2)cs1)c1ccccc1F,-25.5,4.7,4.9,1.9,0.3,-3.3
CS(=O)(=O)N1CCc2cc(C(=O)Nc3ccccc3)ccc21,-4.3,-8.1,-1.2,-15.1,-0.3,-4.8
CCOc1ccc(NC(=O)C2CCCN(S(=O)(=O)c3c(C)n[nH]c3C)C2)cc1 (configuration not stated),-1.1,-5.9,-0.4,-2.5,-0.2,-4.3
O=C(CC(Cc1ccccc1)C(=O)O)Nc1ccc(Cl)c(Cl)c1 (configuration not stated),-0.1,-9.6,-1.0,-26.5,1.1,-4.7
COc1ccc(S(=O)(=O)N2CCC(C(=O)Nc3ccc(S(=O)(=O)N4CCCC4)cc3)CC2)cc1OC,-20.9,3.1,-8.9,-15.9,2.5,-12.6
COc1ccc(Br)cc1/C=C/C(=O)OCC(=O)NCCc1ccc(S(N)(=O)=O)cc1,-3.1,-10.5,x,u,0.7,-5.8
Cc1ccc(C(=O)NC(=S)NNC(=O)c2ccccc2)cc1,-31.5,4.3,-19.2,x,69.5*,-14.3
COc1cc(S(=O)(=O)NC2CCCCC2)c(C)cc1C,-1.9,5.7,-3.0,4.6,1.8,25.1
C=CCOC(=O)C1=C[C@@H](c2csc3ccccc23)C[C@@H](OCCCCO)O1,u,-0.9,x,3.3,1.5,46.9
O=C1NC2(CCCCCC2)C(=O)N1Cc1ccc(Br)cc1,4.3,14.6,-30.4,8.7,0.7,6.0
COc1ccc(CCn2c(N3CCN(Cc4ccccc4)CC3)nc3c2c(=O)[nH]c(=O)n3C)cc1,-19.2,-1.9,25.2,4.9,0.1,-2.0
C#Cc1ccc([C@@H]2C=C(C(=O)NC3CC3)O[C@H](OCCCCO)C2)cc1,2.1,2.0,u,0.6,1.5,-0.5
COc1ccc(N2CCN(C(=O)Cc3cccs3)CC2)cc1,-16.5,-1.0,-19.4,2.9,-0.5,-11.0
COc1ccc(C(=O)COC(=O)CCN2C(=O)C3C4CC(C(Br)C4Br)C3C2=O)cc1 (configuration not stated),-22.3,-4.8,-16.1,-9.0,0.1,-9.6
O=C(O)COc1ccc2oc3ccccc3c2c1,0.8,6.7,2.3,2.3,-0.6,3.9
CCOc1nc(NC2CCCCC2)nc(NC(C)(C)C)n1,-4.2,-1.2,-4.1,-0.5,1.0,6.4
CC(=O)c1ccc(N2CCN(C(=O)C3(S(=O)(=O)c4ccc(Cl)cc4)CC3)CC2)cc1,4.3,-0.2,-1.9,-1.3,3.4,43.6
CCCCc1c(O)nc(SCC(=O)c2ccccc2)[nH]c1=O,3.6,-9.2,u,-1.6,0.2,9.1
O=C(c1cccc(F)c1)N1CCN(C(=O)c2cc3nc(-c4ccco4)cc(C(F)(F)F)n3n2)CC1,-4.8,1.7,-10.7,-0.3,1.1,-0.2
COc1cc(/C=C2\SC(N3CCCCC3)=NC2=O)cc(OC)c1OC,-9.3,-3.5,-13.2,-0.5,-0.6,10.3
O=C(Nc1nccs1)c1cc(S(=O)(=O)N2CCOCC2)c(Cl)cc1Cl,-10.5,-0.1,-0.6,12.2,-0.2,4.7
O=C(Nc1ccccc1N1CCOCC1)c1ccccc1NS(=O)(=O)c1ccc(F)cc1,-0.3,2.3,5.8,-12.5,0.3,-1.2
CCCCCCN1C[C@H](O)[C@@H](n2cc(-c3ccc(F)cc3)nn2)C[C@@H]1c1ccc(C)cc1,0.1,-0.5,x,1.7,-0.3,5.2
CCOC(=O)C1CCCN(C(=O)c2sc3nc(-c4ccc(OC)cc4)cn3c2C)C1 (configuration not stated),-22.4,-2.1,x,-0.4,0.3,12.6
COc1ccc(-c2noc(N3CCC(C(=O)N(C)c4ccccc4)CC3)n2)cc1,1.3,-0.5,-25.7,-4.8,0.5,26.3
CC(=O)Nc1cccc(C(=O)OCC(=O)NC2CCCCCCC2)c1,-0.6,-0.6,0.0,-0.7,1.5,-12.9

# A draw from above in order of length of the SMILES, smallest number first.
SMILES,D2 PAM,Six1-Eya2 blk,TRPV1 potentiator,CtBP-E1A blk,TRPML1 ag,TRPML1 inh
C=CCn1nc2ccccc2c1OC,-5.7,1.5,23.9,2.8,-0.4,11.2
CCOc1nc(NC2CCCCC2)nc(NC(C)(C)C)n1,-4.2,-1.2,-4.1,-0.5,1.0,6.4
COc1cc(S(=O)(=O)NC2CCCCC2)c(C)cc1C,-1.9,5.7,-3.0,4.6,1.8,25.1
Nc1nc(SCC(=O)NCCO)nc2sc3c(c12)CCCC3,-4.4,-5.3,-2.7,x,-0.4,-2.4
COc1cc(/C=C2\SC(N3CCCCC3)=NC2=O)cc(OC)c1OC,-9.3,-3.5,-13.2,-0.5,-0.6,10.3
O=C(Nc1ccccc1N1CCOCC1)c1ccccc1NS(=O)(=O)c1ccc(F)cc1,-0.3,2.3,5.8,-12.5,0.3,-1.2
CN1CCC(N(C)C(=O)c2cccc(S(=O)(=O)N3CCc4ccccc43)c2)CC1,-8.0,2.9,x,-5.4,-0.4,-0.5
Cc1ccc(-c2nnc(SCC(=O)N/N=C/c3ccc(C)s3)n2-c2ccccc2)cc1,-8.6,-3.9,-2.8,7.2,2.2,-14.2
COc1ccc(Br)cc1/C=C/C(=O)OCC(=O)NCCc1ccc(S(N)(=O)=O)cc1,-3.1,-10.5,x,u,0.7,-5.8
COc1ccc(C(=O)COC(=O)CCN2C(=O)C3C4CC(C(Br)C4Br)C3C2=O)cc1 (configuration not stated),-22.3,-4.8,-16.1,-9.0,0.1,-9.6
CCCCCCN1C[C@H](O)[C@@H](n2cc(-c3ccc(F)cc3)nn2)C[C@@H]1c1ccc(C)cc1,0.1,-0.5,x,1.7,-0.3,5.2

# Screens (PubChem)
